Screening results (PubChem)
BH1578 lux ind = inducers of Vibrio cholerae quorum light production without autoinducers, primary screen, BH1578 luxS cqsA deficient, single point; V. cholerae BH1578 lux reporter, luminescence, 6 h; activation, % at 18.7 µM; 350,000 compounds, 0.16% hits; in the data active = activation mostly above about 9.7%, no sharp cut-off; note: not every result past the cut was called active; inactives centre near 0; reference of the scale not given here
SSB-PriA inh = inhibitors of Klebsiella pneumoniae PriA binding to SSB C-terminal tail, primary screen, biochemical, AlphaScreen; PriA–SSB C-terminal tail interaction (Klebsiella pneumoniae); AlphaScreen SSBct-PriA binding, biotinylated peptide; inhibition, % at 33 µM; 430,000 compounds, 0.6% hits; in the data active = inhibition mostly above about 37%, no sharp cut-off; inactive = mostly below about 20%;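 note: plate controls were negative control peptide for no effect and reference peptide for full effect; strong numbers were not always called active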
Anthrax LF prot = Bacillus anthracis LF protease inhibitors, primary screen, biochemical, multiplex microsphere, MLPCN library. Lethal factor (Bacillus anthracis), P15917. multiplex microsphere protease cleavage assay. inhibition, % at 10 µM. 360,000 compounds, 0.12% hits. AID 588501, 2011; in the data active = inhibition above about 30%; note: plate controls were buffer without enzyme for full effect and enzyme alone for no effect
PfHsp40 yeast = rescue of yeast from PfHsp40 toxicity, primary screen, S. cerevisiae, ATP luminescence | S. cerevisiae expressing PfHsp40, growth rescue | growth rescue, % at 12.5 µM | 340,000 compounds, 0.68% hits; in the data active = growth rescue above about 28%, passing the limit was not always enough;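 note: yeast W303a lacking pdr1 and pdr3 grown in galactose medium; growth measured after three days at 30 °C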
SARS 3CLpro inh = SARS-CoV 3CLpro protease inhibitors, primary screen, biochemical, quenched FRET; Replicase polyprotein 1ab (Severe acute respiratory syndrome coronavirus), P0C6X7; recombinant SARS-CoV 3CLpro, quenched FRET peptide cleavage; inhibition, % at 6 µM; 290,000 compounds, 0.14% hits; in the data active = inhibition above about 12%
Numbers without * were called inactive; i = inactive; . = no result given.

Each structure is followed by: BH1578 lux ind, SSB-PriA inh, Anthrax LF prot, PfHsp40 yeast, SARS 3CLpro inh
[1] Cc1c(C(=O)NN2CCCCC2)nn(-c2ccc(Cl)cc2Cl)c1-c1ccc(I)cc1
→ ., ., ., ., 6.8
[2] CCn1cc(C(=O)O)c(=O)c2cc(F)c(N3CCN(C)CC3)cc21
→ -0.4, 4.2, 4.1, -1.4, 1.9
[3] O=C1C(CCS(=O)c2ccccc2)C(=O)N(c2ccccc2)N1c1ccccc1 (configuration not stated)
→ i, -5.4, -0.4, 0.4, -0.6
[4] O=C1c2ccccc2C(=O)C2OC12 (configuration not stated)
→ ., ., ., ., 0.9
[5] Nc1ccn([C@H]2CS[C@@H](CO)O2)c(=O)n1
→ -0.4, 4.8, -6.0, -0.3, .
[6] S=c1nc(-c2cccc(Br)c2)[nH][nH]1
→ -0.2, -7.6, -0.6, -1.2, 4.3
[7] N#Cc1c(-c2cccs2)nc(SCC(=O)c2ccc(Br)cc2)[nH]c1=O
→ -0.5, -14.1, 6.5, -0.4, -6.5
[8] CCN1CCN(C(=O)N[C@@H](C(=O)N[C@@H]2C(=O)N3C(C(=O)O)=C(CSc4nnnn4C)CS[C@H]23)c2ccc(O)cc2)C(=O)C1=O
→ i, -4.4, -4.9, 1.4, .

Two entries drawn at random from those above, as already listed:
Each structure is followed by: BH1578 lux ind, SSB-PriA inh, Anthrax LF prot, PfHsp40 yeast, SARS 3CLpro inh
[8] CCN1CCN(C(=O)N[C@@H](C(=O)N[C@@H]2C(=O)N3C(C(=O)O)=C(CSc4nnnn4C)CS[C@H]23)c2ccc(O)cc2)C(=O)C1=O
→ i, -4.4, -4.9, 1.4, .
[2] CCn1cc(C(=O)O)c(=O)c2cc(F)c(N3CCN(C)CC3)cc21
→ -0.4, 4.2, 4.1, -1.4, 1.9

Full records as entered above.
Listed for Cc1c(C(=O)NN2CCCCC2)nn(-c2ccc(Cl)cc2Cl)c1-c1ccc(I)cc1 : BH1578 lux ind = .; SSB-PriA inh = .; Anthrax LF prot = .; PfHsp40 yeast = .; SARS 3CLpro inh = 6.8
Listed for O=C1C(CCS(=O)c2ccccc2)C(=O)N(c2ccccc2)N1c1ccccc1 (configuration not stated) : BH1578 lux ind = i; SSB-PriA inh = -5.4; Anthrax LF prot = -0.4; PfHsp40 yeast = 0.4; SARS 3CLpro inh = -0.6

Values in list order from the list.
Entries 3 to 8 in Anthrax LF prot, in turn: -0.4, ., -6.0, -0.6, 6.5, -4.9
Entries 3 to 8 in BH1578 lux ind, in turn: i, ., -0.4, -0.2, -0.5, i
Entries 3 to 8 in PfHsp40 yeast, in turn: 0.4, ., -0.3, -1.2, -0.4, 1.4

These rows are one share of the data, so the mix of outcomes need not match the whole.
